Screening data: PubChem BioAssay, several laboratories
HSV augment: increases HSV replication in cells. HSV replication augmentation in cells, fold increase. maximum fold increase. actives 0.005% (n = 220,000);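 active = peak rise of 1.5-fold or more in the series; tested in PC3 cells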;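 note: first round at 10 µM; read as green reporter fluorescence; hits show the peak of a series up to 25 µM; 1 = signal of infected wells without compound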
PKD1 kinase inh: inhibitors of human PKD1 kinase; actives 0.056% (n = 200,000); PKD1 kinase fluorescence polarization assay; inhibition, %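 (about 10 µM by stock and volumes)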; AID 797; Q15139;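 active = inhibition of 50% or more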;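 note: controls were vehicle for no effect and a reference inhibitor for full effect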
RGS16-Gao HTS: modulates binding between human RGS16 and Galphao; AID 1441; O15492+P09471; actives 0.38% (n = 220,000); bead-based flow cytometry RGS16-Galphao binding, fluorescence; actives lie on both sides; binding response (% of control), % at 10 µM;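 active = below 25% or above 175%, edge rows of some plates excepted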;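 note: Galphao activated by GDP with aluminum fluoride before binding; 100% = wells without compound and 0% = beads without RGS; some results beyond the cut were filed as inactive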
Target sequence (O15492 whole entry, looked up): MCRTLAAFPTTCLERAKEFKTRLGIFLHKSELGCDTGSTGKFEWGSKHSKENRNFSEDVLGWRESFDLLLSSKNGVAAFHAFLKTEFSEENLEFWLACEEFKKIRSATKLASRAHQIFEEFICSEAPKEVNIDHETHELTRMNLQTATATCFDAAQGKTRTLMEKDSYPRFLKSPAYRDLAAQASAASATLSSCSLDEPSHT
Target sequence (P09471 whole entry, looked up): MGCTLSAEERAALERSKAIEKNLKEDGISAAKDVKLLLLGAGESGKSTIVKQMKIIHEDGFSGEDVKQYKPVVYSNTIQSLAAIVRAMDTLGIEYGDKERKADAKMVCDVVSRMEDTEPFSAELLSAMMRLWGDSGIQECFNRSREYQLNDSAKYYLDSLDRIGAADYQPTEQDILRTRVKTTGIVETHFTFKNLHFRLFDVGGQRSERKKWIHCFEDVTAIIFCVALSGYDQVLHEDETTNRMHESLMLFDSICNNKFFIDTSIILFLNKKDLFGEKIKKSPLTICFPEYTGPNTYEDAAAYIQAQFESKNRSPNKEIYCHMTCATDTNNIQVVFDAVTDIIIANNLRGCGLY
GALR2 agonist: GALR2 (human) receptor agonism. actives 0.48% (n = 140,000). O43603. GALR2-expressing cells, agonist activation read-out. activation, %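 (tested at 5 µM)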;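 active = above mean plus 3 SD of all compounds, about 5% in these data, not always enough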;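 note: 0% = vehicle buffer wells and 100% = reference agonist at full effect; tested in CHO reporter cells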
Target sequence (O43603 whole entry, looked up): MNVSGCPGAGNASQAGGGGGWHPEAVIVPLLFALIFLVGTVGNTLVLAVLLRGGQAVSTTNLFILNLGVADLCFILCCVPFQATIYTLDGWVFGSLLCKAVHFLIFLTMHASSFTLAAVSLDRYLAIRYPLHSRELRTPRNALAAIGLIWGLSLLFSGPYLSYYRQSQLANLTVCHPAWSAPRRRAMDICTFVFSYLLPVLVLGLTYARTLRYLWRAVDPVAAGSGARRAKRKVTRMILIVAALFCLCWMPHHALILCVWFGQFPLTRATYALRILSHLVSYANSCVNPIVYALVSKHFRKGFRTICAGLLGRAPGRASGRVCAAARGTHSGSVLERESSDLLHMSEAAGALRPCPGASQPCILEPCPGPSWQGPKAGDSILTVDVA
INS promoter inh: TRM-6 insulin promoter activity inhibition; TRM-6 cells (human fetal islet line), insulin promoter-eGFP reporter, imaging; reporter expression induced with tamoxifen; inhibition, % at 2 µM; actives 0.9% (n = 130,000); AID 1273;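 active = inhibition above the mean plus 3 SD, with well images judged a real hit on visual review, cut at about 60% in these data, passing the limit was not always enough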
INS promoter inh cell count: second read-out of INS promoter inh, no call of its own (marks repeat the call); normalized cell count, %; measured here: cell count, toxicity; reference of the scale not given here;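 cells exposed to compound for 48 h; stained nuclei by imaging scaled within each plate; lower means fewer cells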
HSV augment primary fold: recorded beside HSV augment, whose call it bears; fold increase; compound at 10 µM; measured here: primary screen fold increase 10 uM; tested in PC3 cells;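 GFP signal in the first replicate; 1 = infected wells without compound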
* marks the source's active call; other numbers are inactive results; i = inactive; · = not tested or not shown.

Sequence of screens: HSV augment, HSV augment primary fold, PKD1 kinase inh, RGS16-Gao HTS, GALR2 agonist, INS promoter inh, INS promoter inh cell count
- CCN(CC)CCOc1ccc2c(c1)C(=NNC(=O)c1ccccn1)c1cc(OCCN(CC)CC)ccc1-2
    i, 0.77, -8.0, 203.4, -0.3, ·, ·
- O=C(Nc1ccccc1)NC1(C(=O)NCc2ccc3c(c2)OCO3)CCCCC1
    i, 1, -0.4, 101.1, 0.1, ·, ·
- CCCc1cc(=O)oc2c(CN(CC)CC)c(O)c(Cl)cc12
    i, 0.9, ·, 104.6, ·, ·, ·
- CCOc1ccccc1NC(=O)CSCC(=O)Nc1ccccc1
    i, 1.08, -0.4, 99.5, 0.1, 21.4, 81.9
- CN1CCN(C(=S)Nc2cccc(Cl)c2)CC1
    i, 1.02, 0.7, 92.7, -0.2, 29.0, 96.1
- COc1cc(-c2nnc(-c3ccncc3)o2)ccc1OCc1ccccc1
    i, 0.74, -0.4, 105.8, -0.6, ·, ·
- Cc1ccc(NC(=O)c2ccc(CSc3nnc(C)s3)cc2)cc1
    i, 1.02, -10.1, 104.4, -1.2, 34.0, 85.6
- Cc1ccc(C)c(Oc2coc3cc(OCC(=O)Nc4ccccc4C(C)C)ccc3c2=O)c1
    i, 1.04, -5.2, 101.5, -0.6, -27.3, 116.6
- CCOc1ccccc1-n1c(CNc2ccc(F)cc2)nnc1SCC(=O)NCc1ccco1
    i, 0.96, -7.1, 106.7, -1.1, -118.8, 96.7
- CC12CCC(C(=O)N(CC(O)CN3CCN(Cc4ccccc4)CC3)C1=O)C2(C)C (stereo unspecified)
    i, 0.98, ·, 96.6, ·, ·, ·
- CN(C)CCCNc1nc2sc3c(c2c(=O)n1CCc1ccccc1)CCCCC3
    i, 0.59, ·, 96.6, ·, ·, ·
- CCCCc1c(C)nc2c(OC)cccc2c1SCCC(=O)O
    i, 0.93, -5.2, 107.3, -0.5, -6.2, 162.1
- COc1ccc(/C=N/NC(=O)CCOc2ccccc2C)cc1OC
    i, 0.97, 2.0, 101.2, -1.0, -7.7, 151.1
- CC(=O)OCC(=O)Nc1c(C)cc(C)cc1C
    i, 0.93, -7.6, 109.0, ·, -27.3, 170.7
- CCOc1ccccc1OCC(=O)NNC(=O)Cn1cnc2c1c(=O)n(C)c(=O)n2C
    i, 0.92, 7.3, 98.3, ·, ·, ·
- COc1cc(CNC(C)(C)CO)cc(Br)c1OCc1ccc(Cl)cc1Cl
    i, 1.09, -7.5, 109.6, 0.4, 20.0, 111.0
- COc1ccc(OCC(=O)O/N=C(\N)c2ccc(OC)cc2)cc1
    i, 0.94, ·, 99.7, ·, ·, ·
- Cc1c(Cl)cccc1NC(=S)N1CCc2ccccc2C1
    i, 0.8, -0.8, 100.0, ·, ·, ·
- O=C(CNS(=O)(=O)c1ccc(F)cc1)N1CCN(c2ccc(F)cc2)CC1
    i, 0.76, -3.1, 103.6, -1.3, -337.5, 42.9
- O=C(O)CCCNC(=O)Nc1ccccc1
    i, 1.08, -6.0, 98.0, -1.7, 30.0, 125.3
- Cc1nc2cc(C(=O)O)ccc2n1C1CCCCC1
    i, 1.1, -0.1, 98.1, -1.6, -362.1, 58.2
- COc1cc(C2c3c(oc4c(C)cc(C)cc4c3=O)C(=O)N2Cc2cccnc2)ccc1O (stereo unspecified)
    i, 0.96, -2.9, ·, -0.1, -2.8, 107.8
- CCC(c1nnnn1Cc1ccccc1)N1CCN(C(=O)c2ccco2)CC1 (stereo unspecified)
    i, 0.9, 0.7, 97.7, -0.4, 28.6, 110.5
- NS(=O)(=O)c1ccc(NC(=O)Nc2ccc(S(N)(=O)=O)cc2)cc1
    i, 0.94, ·, 97.1, ·, ·, ·
- Cc1ccsc1C(=O)N1CC(=O)Nc2ccccc21
    i, 0.87, 4.5, 104.3, -1.5, ·, ·
- O=C(CSc1ccccc1)NC1=NCCS1
    i, 0.93, ·, 103.8, ·, ·, ·
- CC(=O)Nc1ccc(N(C(=O)c2cnccn2)C(C(=O)NC2CCCCC2)c2ccc(O)cc2)cc1 (stereo unspecified)
    i, 0.81, 9.9, 99.3, -1.8, ·, ·
- Cc1noc(C)c1S(=O)(=O)Nc1ccc(C(=O)N2CCN(c3cccc(Cl)c3)CC2)cc1
    i, 1.1, 3.6, 102.6, -2.5, -15.4, 117.7
- O=C(Nc1cccc2ccccc12)N1N=CCC1c1ccccc1 (stereo unspecified)
    i, 0.92, ·, 103.5, ·, ·, ·
- Cc1ccc(Oc2ccccc2)c(NC=O)c1
    i, 0.94, 6.0, 100.5, -2.0, -18.2, 75.7
- CCOc1cc(/C=N/NC(=O)c2cc(C)n(-c3ccc(F)cc3)c2C)ccc1O
    i, 0.98, ·, 106.2, ·, ·, ·
- Cc1nnsc1C(=O)NCc1c(F)cccc1Cl
    i, 0.95, ·, 97.3, ·, ·, ·
- Cc1ccc2c3c(c(SCC(=O)Nc4nccs4)nc2c1)CCCC3
    i, 0.76, -1.1, 101.2, -2.1, 26.7, 93.5
- COC(=O)c1cc2c(s1)-c1ccc(OC)cc1CC2
    i, 0.97, ·, 107.0, ·, ·, ·
- CCOC(=O)c1c(C)[nH]c(C(=O)OCC(=O)NC(C)C)c1C
    i, 1.09, -6.7, 103.9, -2.6, -20.0, 135.5
- O=c1cc(CO)occ1OCc1cccc(F)c1
    i, 0.71, 4.1, 107.2, -1.8, -22.6, 69.2
- Cc1nn(CCc2n[nH]c(=S)n2-c2ccc(F)cc2)c(C)c1[N+](=O)[O-]
    i, 0.92, 3.0, 83.3, -2.1, -29.6, 74.0
- CN(c1ccccc1)S(=O)(=O)c1ccc(NC(=S)NC(=O)C2CC2)cc1
    i, 0.89, 5.6, 117.4, -1.2, -15.4, 105.0
- Cc1cccc(Nc2c(-c3ccc(O)cc3)nc3ncccn23)c1
    i, 0.97, 5.5, 98.7, ·, ·, ·
- Cc1ccc(C(=O)C2C(=O)c3ccccc3C2=O)cc1
    i, 1.1, -3.1, 100.0, -2.1, -34.3, 47.1
- CC(NCc1ccc(F)cc1)C(=O)NC1CCCCC1 (stereo unspecified)
    i, 0.94, 6.8, 95.8, ·, 38.5, 79.9
- O=C(Oc1ccccc1)c1cccnc1Oc1ccccc1
    i, 1.2, ·, 99.0, ·, ·, ·
- Nc1nc2nn(-c3ccccc3)nc2c(=O)[nH]1
    i, 0.98, ·, 84.5, ·, ·, ·
- O=C(Nc1ccccc1)c1cc(-n2cnnc2)ccc1Cl
    i, 1.01, -3.7, 103.7, -2.6, -27.8, 66.2
- O=C(c1cnn(C(=O)c2ccccc2)c1)c1ccccc1O
    i, 0.93, 9.1, 101.2, -0.3, 40.0, 110.6
- Cc1cccc(-n2nnc3c(=O)n(Cc4ccccn4)cnc32)c1
    i, 1.03, 6.3, 104.0, ·, ·, ·
- CN(c1ccc([N+](=O)[O-])cc1/C=N/NC(=O)COc1ccccc1)C1CCCCC1
    i, 0.96, -7.1, 108.5, -1.5, -31.0, 75.5
- N#CC1=C(S)N(c2ccccc2)C(c2ccc(-c3ccccc3Cl)o2)NC1=O (stereo unspecified)
    i, 1.13, -3.7, 98.8, -0.1, 32.3, 96.0
- COCc1cc(CN2CCN(Cc3ccsc3)C(CCO)C2)ccc1OC (stereo unspecified)
    i, 1.06, 1.8, 99.8, ·, ·, ·
- O=C(Nc1ccccc1)Nc1ccc2ncoc2c1
    i, 0.98, -3.9, 100.4, ·, 35.0, 104.2
- CCc1ccc2nc(NC(=O)CCCc3cccs3)sc2c1
    ·, ·, -3.7, 96.8, -1.6, ·, ·
- Clc1ccc(OCCCN2CCCCC2)c(Br)c1
    i, 0.91, 0.0, 107.5, -0.8, -23.1, 105.6
- O=C(CCCN1C(=O)c2cccc3cccc(c23)C1=O)N1CCN(c2ccccc2)CC1
    i, 1.02, 8.0, 92.9, -0.1, ·, ·
- Cc1c(S(=O)(=O)N2CCN(C(c3ccccc3)c3ccccc3)CC2)c(=O)n(C)c(=O)n1C
    i, 0.95, -4.2, 100.3, -2.2, ·, ·
- CCC(C)NC(=O)CO/N=C/c1ccccc1OC(F)F (stereo unspecified)
    i, 0.94, -12.6, 106.7, -0.4, 35.7, 110.7
- CCCOC(=O)CSC1=C(C#N)C(c2ccc3c(c2)OCO3)CC(=O)N1 (stereo unspecified)
    i, 0.933, 0.8, 105.0, -1.2, ·, ·
- CCCCC(=O)NNC(=S)NC(=O)c1ccc([N+](=O)[O-])cc1
    i, 1.02, -4.7, 101.6, ·, -12.8, 95.0
- Cc1ccsc1C(=O)OCC(=O)N1CCOCC1
    i, 1, -11.6, 98.0, -1.6, ·, ·
- COc1ccc(-n2nnc3c(=O)n(CC(=O)N4CCCCC4)cnc32)cc1
    i, 0.9, -22.9, ·, -1.5, ·, ·
- CCOC(=O)/C(C#N)=C/c1cn(CCC(=O)O)nc1-c1cccc(Cl)c1
    i, 0.99, -4.2, 99.7, ·, ·, ·

Some of the entries so far, as labelled records.
> Cc1nn(CCc2n[nH]c(=S)n2-c2ccc(F)cc2)c(C)c1[N+](=O)[O-]
  HSV augment: i | HSV augment primary fold: 0.92 | PKD1 kinase inh: 3.0 | RGS16-Gao HTS: 83.3 | GALR2 agonist: -2.1 | INS promoter inh: -29.6 | INS promoter inh cell count: 74.0

> CN(c1ccccc1)S(=O)(=O)c1ccc(NC(=S)NC(=O)C2CC2)cc1
  HSV augment: i | HSV augment primary fold: 0.89 | PKD1 kinase inh: 5.6 | RGS16-Gao HTS: 117.4 | GALR2 agonist: -1.2 | INS promoter inh: -15.4 | INS promoter inh cell count: 105.0

Other compounds follow:
Sequence of screens: HSV augment, HSV augment primary fold, PKD1 kinase inh, RGS16-Gao HTS, GALR2 agonist, INS promoter inh, INS promoter inh cell count
- CC(=O)NC1(C(F)(F)F)N=C(c2ccccc2)NC1=O (stereo unspecified)
    i, 1.09, -0.9, 106.0, -1.7, ·, ·
- Cc1ccccc1Nc1nc(N)nc(COC(=O)c2cccn2C)n1
    i, 0.92, 15.7, 104.1, -2.1, ·, ·
- O=C(NCc1ccco1)C(C(=O)c1ccccc1)n1ccccc1=O (stereo unspecified)
    i, 0.78, -0.9, 106.3, -2.0, ·, ·
- O=C(Nc1ccc2c(c1)OCCO2)C1CCCN(S(=O)(=O)Cc2ccccc2)C1 (stereo unspecified)
    i, 0.93, -4.3, 100.0, -2.2, 3.6, 42.3
- CCn1nc(C(=O)OCC(=O)NCC(C)C)c2ccccc2c1=O
    i, 0.98, -2.5, 101.5, ·, ·, ·
- Cc1cc(NC(=O)COC(=O)CCNS(=O)(=O)c2cccc(C(F)(F)F)c2)no1
    i, 1.14, 1.3, 99.4, ·, 26.3, 81.0
- O=c1oc2cc(Oc3ccc(C(F)(F)F)cc3[N+](=O)[O-])ccc2c2c1CCCC2
    i, 1.06, -2.5, 101.0, -1.8, ·, ·
- C(=C\c1ccccc1)/C=N/N1CCN(c2ccccn2)CC1
    i, 0.94, -0.3, 100.6, -2.8, -7.7, 107.4
- OC(COCc1ccc(Cl)cc1)CN1CCc2ccccc2C1 (stereo unspecified)
    i, 1.01, -1.2, 109.1, -1.2, 37.5, 147.5
- O=c1oc(-c2cccc(C(F)(F)F)c2)nn1-c1ccc(C(F)(F)F)cn1
    i, 0.97, ·, 104.7, ·, ·, ·
- S=C(Nc1ccccc1)Nc1cccc(Br)c1
    i, 0.94, -0.5, 98.6, ·, ·, ·
- O=C1CC(N2CCSCC2)C(=O)N1c1cccc(Br)c1 (stereo unspecified)
    i, 1.01, -1.4, 103.7, ·, ·, ·

Filtered by structure: the entries above containing an aryl methoxy group (nine)
Sequence of screens: HSV augment, HSV augment primary fold, PKD1 kinase inh, RGS16-Gao HTS, GALR2 agonist, INS promoter inh, INS promoter inh cell count
- COc1cc(-c2nnc(-c3ccncc3)o2)ccc1OCc1ccccc1
    i, 0.74, -0.4, 105.8, -0.6, ·, ·
- CCCCc1c(C)nc2c(OC)cccc2c1SCCC(=O)O
    i, 0.93, -5.2, 107.3, -0.5, -6.2, 162.1
- COc1ccc(/C=N/NC(=O)CCOc2ccccc2C)cc1OC
    i, 0.97, 2.0, 101.2, -1.0, -7.7, 151.1
- COc1cc(CNC(C)(C)CO)cc(Br)c1OCc1ccc(Cl)cc1Cl
    i, 1.09, -7.5, 109.6, 0.4, 20.0, 111.0
- COc1ccc(OCC(=O)O/N=C(\N)c2ccc(OC)cc2)cc1
    i, 0.94, ·, 99.7, ·, ·, ·
- COc1cc(C2c3c(oc4c(C)cc(C)cc4c3=O)C(=O)N2Cc2cccnc2)ccc1O (stereo unspecified)
    i, 0.96, -2.9, ·, -0.1, -2.8, 107.8
- COC(=O)c1cc2c(s1)-c1ccc(OC)cc1CC2
    i, 0.97, ·, 107.0, ·, ·, ·
- COCc1cc(CN2CCN(Cc3ccsc3)C(CCO)C2)ccc1OC (stereo unspecified)
    i, 1.06, 1.8, 99.8, ·, ·, ·
- COc1ccc(-n2nnc3c(=O)n(CC(=O)N4CCCCC4)cnc32)cc1
    i, 0.9, -22.9, ·, -1.5, ·, ·
